TRPV1 potentiator: potentiators of human vanilloid receptor 1 (TRPV1); AID 540277; 320,000 compounds, 0.02% hits; potentiation, % at 8.33 µM; Q8NER1; TRPV1-expressing cells, Fluo-8 calcium influx, capsaicin EC20 potentiation; host cell line not named in the record; control for the full effect not named in the record; active means potentiation above 80%; inconclusive means 30% to 80%; inactive means below 30%; further: 0% is about no effect
Target sequence (Q8NER1 whole entry, looked up): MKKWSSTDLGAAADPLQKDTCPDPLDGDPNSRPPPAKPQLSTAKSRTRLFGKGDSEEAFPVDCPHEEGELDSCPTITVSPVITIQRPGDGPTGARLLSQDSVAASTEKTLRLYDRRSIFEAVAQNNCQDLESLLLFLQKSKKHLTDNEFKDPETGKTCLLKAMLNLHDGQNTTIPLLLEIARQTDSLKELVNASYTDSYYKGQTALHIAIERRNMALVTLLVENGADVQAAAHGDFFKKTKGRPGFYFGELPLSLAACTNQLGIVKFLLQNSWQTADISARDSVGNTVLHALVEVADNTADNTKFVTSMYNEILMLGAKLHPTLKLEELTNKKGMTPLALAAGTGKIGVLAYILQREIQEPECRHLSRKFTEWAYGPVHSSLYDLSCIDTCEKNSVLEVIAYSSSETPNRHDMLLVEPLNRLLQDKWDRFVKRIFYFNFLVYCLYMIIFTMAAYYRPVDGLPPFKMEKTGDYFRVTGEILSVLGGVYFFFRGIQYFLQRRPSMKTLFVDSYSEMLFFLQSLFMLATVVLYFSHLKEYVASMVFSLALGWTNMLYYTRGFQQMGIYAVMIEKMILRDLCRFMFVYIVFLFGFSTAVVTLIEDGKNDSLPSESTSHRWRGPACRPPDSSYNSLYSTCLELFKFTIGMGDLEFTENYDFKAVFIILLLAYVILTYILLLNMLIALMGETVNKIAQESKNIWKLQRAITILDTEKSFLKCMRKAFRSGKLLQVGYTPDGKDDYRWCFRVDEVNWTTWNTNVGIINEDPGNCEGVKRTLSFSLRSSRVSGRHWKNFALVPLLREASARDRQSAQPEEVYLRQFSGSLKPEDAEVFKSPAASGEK
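Cells expressing TRPV1 were dye-loaded with Fluo-8 and read kinetically: 10 s baseline, 3 min after compound (agonist portion), then 2 min after EC20 capsaicin (allosteric enhancer portion). Calcium-bound dye fluorescence at 480/520 nm.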
ClpP mod: qHTS Assay for Activators of ClpP. AID 651965, 2013. purified B. subtilis ClpP, FRET peptide cleavage, 20 min. 340,000 compounds, 1.9% hits. ATP-dependent Clp protease proteolytic subunit (Bacillus subtilis (strain 168)), P80244. Potency, µM (series often up to 57.5 µM), for the others: at the highest dose activity change, negative = active; active = well fitted falling curve with a large enough effect; inconclusive = small, poorly fitted or top-dose-only effect; inactive = no such curve, though single readings can be large or run the other way; further: potency means the concentration at half of the fitted maximal effect; the source files actives as falling curves though it sought activators and does not explain the sign; nearly all actives have a fitted effect of over 65% in size; many hits overshoot -100%
Target sequence (P80244 whole entry, looked up): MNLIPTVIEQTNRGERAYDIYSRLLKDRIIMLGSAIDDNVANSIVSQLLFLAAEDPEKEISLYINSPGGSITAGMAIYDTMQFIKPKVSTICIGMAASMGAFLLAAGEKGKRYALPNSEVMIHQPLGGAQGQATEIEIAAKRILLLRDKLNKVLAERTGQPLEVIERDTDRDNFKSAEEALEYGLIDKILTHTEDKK
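FRET quenching reversal measured ClpP activation: 10 microg/mL B. subtilis ClpP at pH 8 with the FRET-FV decapeptide, read at 430 nm after 320 nm excitation. The 20-min minus 0-min signal was scaled between DMSO/no-enzyme wells and ADEP (5.8 microM final).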
CtBP-E1A blk: inhibitors of CtBP/E1A interaction | AlphaScreen GST-E1A/His-CtBP binding, 1536-well; hits give low values; control for the full effect not named in the record | activity change, % (test concentration not listed) | 340,000 compounds, 0.49% hits | AID 651724; in the data active means activity change below about -65%; inconclusive means about -30% to -65%; inactive means above about -30%; further: on the % scale 0 is the no-effect control and ±100 the full control effect
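AlphaScreen with 125 nM GST-E1A and 125 nM His-CtBP (5X stocks) in Tris pH 8.0, 300 mM NaCl, BSA, Tween 20, TCEP. Compounds preincubated 2 h at 37 deg C, then glutathione donor/nickel acceptor beads added for 1 h at 37 deg C in dark.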
Sfp PPTase inh: blocks B. subtilis Sfp PPTase activity; Q9F4F7; Biochemical Sfp PPTase activity, qHTS; Potency, µM, for the others: max response, negative = inhibition, actives largely listed as inhibitors; 310,000 compounds, 3.5% hits; AID 1490; active means well fitted inhibition curve with a large enough effect; inconclusive means small, poorly fitted or top-dose-only effect, or another doubt; inactive means no such curve, though single readings can be large or run the other way;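 further: the enzyme is Sfp with the accession as filed and its product quenches rhodamine fluorescence; potency means the concentration at half of the fitted maximal effect; 0% = enzyme reaction without inhibitor and -100% = no enzyme wells; top concentration of the series not given in the record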
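Sfp 15 nM + cpd, 15 min RT; start w/ rhodamine-CoA 5 uM, BHQ-2-YbbR 12.5 uM (final); 50 mM Hepes pH 7.6, 10 mM MgCl2, 0.01% NP-40, 0.01% BSA; read 525/598 nm at 0 and 30 min.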
gsp ag: agonists of gsp mutant (McCune-Albright syndrome); AID 624287; Potency, µM (titrated, usually from 76.9 µM), for inactives: top-dose activation (cAMP increase), hits mostly activators; gsp mutant cells, cAMP HTRF, 30 min; control for the full effect not named in the record; 340,000 compounds, 0.13% hits; active = well fitted activation curve with a large enough effect; inconclusive = small, poorly fitted or top-dose-only effect, or another doubt; inactive = no such curve, though single readings can be large or run the other way; cell line not stated here;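 further: phosphodiesterase inhibitor Ro 20-1724 added with compounds to block cAMP breakdown; potency means the concentration at half of the fitted maximal effect; nearly all actives have a fitted effect of over 60% in size; about a fifth of the inactives were tested at one dose only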
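Cells in DMEM/10% FBS with G418 were pretreated with compounds in DMSO plus […] (300 uM stock) for 30 min at 37C. cAMP was measured by HTRF (cAMP-d2 plus anti-cAMP antibody-K) after 30 min at room temperature.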
Menin MLL FP FL: displaces fluorescein MLL peptide from human menin | Fluorescence polarization, fluorescein-MLL peptide displacement from menin | FP activity change, % at 61.4 µM | 290,000 tested, under 10 active | AID 1766; inconclusive = falling polarisation curve, or a change in total fluorescence; inactive = total fluorescence flat and polarisation flat or rising; no compound was filed as active; the % refers to the polarisation; negative = inhibition;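 further: % of control where 0% means no effect; inhibitors lower the polarisation; unlabelled MLL peptide was the positive control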
gsp antagonist: antagonizes gsp, the McCune-Albright syndrome mutation; 340,000 compounds, 0.4% hits; Potency, µM (series often up to 76.9 µM), without a hit: at the top dose activity change, negative = inhibition, usual class: inhibitors; gsp-mutant cells, cAMP HTRF, 30 min; control for the full effect not named in the record; AID 624288; active = falling curve of any shape with a large fitted effect; inconclusive = falling curve, mostly with a smaller effect; inactive = flat or rising curve; cell line not stated here;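 further: intracellular cAMP measured with PDE inhibitor Ro 20-1724 present during compound exposure; potency means the concentration at half of the fitted maximal effect; on the % scale 0 is the no-effect control and ±100 the full control effect; nearly all actives have a fitted effect of over 65% in size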
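Measurement of cellular cAMP by homogeneous time-resolved fluorescence following a 30 min compound exposure at 37C. The PDE inhibitor […] was present throughout; the assay buffer was DPBS with 0.05% BSA and 0.005% Tween 20.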
An asterisk follows results filed as active; ? = inconclusive; / = no result given; [ ] = dose if it differs, or a comment. Random draw from the library. Share with any hit: about 5.3%.

SMILES	TRPV1 potentiator	ClpP mod	CtBP-E1A blk	Sfp PPTase inh	gsp ag	Menin MLL FP FL	gsp antagonist
COC(=O)c1c(C(=O)OC)c(-c2ccc(Cl)cc2)n2c1CS(=O)(=O)C2	-6	/	/	16%	0%[15.4 µM]	-2.0	-10%
CC(=O)c1cccc(N(C(=O)CNC(=O)c2cccs2)C(C(=O)NCC2CCCO2)c2ccccc2)c1 (configuration not stated)	5	/	3	4%	?	-4.1	-2%
CN(C)c1ncc(CN2CCC(CO)(CCCc3ccccc3)CC2)s1	11	-3.4%	/	-4%	-2%	-0.2	-6%
Cc1ccc(NC(=O)N2CCC(C(=O)NCc3ccccc3)CC2)cc1	-11	-2.4%	8	8%	-11%	-1.5	-2%
O=C(O)C1C2C=CC(C2)C1C(=O)Nc1ccc(C(=O)N2CCCCC2)c(Cl)c1 (configuration not stated)	-5	-0.6%	6	-7%	?	0.4	-1%
CCOC(=O)N1CCC(NC(=O)c2ccc3c(c2)sc2nc(-c4ccc(OC)cc4)cn23)CC1	-2	/	/	-4%	/	2.9	/
OC(Cc1cccnc1)c1ccccc1 (configuration not stated)	/	-3.2%	-2	/	5%	/	1%
O=C(CCN1C(=O)c2ccccc2S1(=O)=O)N1CCN(c2ccccc2)CC1	0	-1.4%	0	9%	?	-2.0	-8%
COc1ccc(NC(=O)c2nn(C)c(=O)c3ccccc23)cc1S(=O)(=O)Nc1ccccc1Cl	2	2.3%	-18	17%	0%	-2.1	-24%
COc1cccc(-c2nnc(SCN3C(=O)c4ccccc4C3=O)n2C)c1	0	1.4%	22	-1%	20%	-8.5	-4%
CC1=C(C(=O)OC(C)C)C(c2c(O)ccc3ccccc23)NC(=O)N1 (configuration not stated)	1	-1.5%	-3	3%	-24%	3.7	-3%
COc1ccc(-c2csc(C)n2)cc1	-13	2.4%	3	12%	-5%	-0.7	-9%
COc1ccc(C(=O)NCc2cn3c(C)csc3n2)cc1OC	1	-0.1%	-3	16%	0%	-0.7	6%
COC(=O)c1cn(Cc2c(C)cc(C)cc2C)nn1	2	-0.9%	-11	18%	3%	-1.1	-5%
CCCNc1ncnc2c1cnn2C1CCCCO1 (configuration not stated)	/	-7.5%	-2	/	0%[15.4 µM]	/	9%
O=C(COc1ncnc2cc(Cl)ccc12)c1ccc2c(c1)OCCO2	-26	-0.7%	6	6%	12%[15.4 µM]	4.7	0%
Cc1cc(C)nc(SCC(=O)Nc2ccc(S(=O)(=O)Nc3cc(C)on3)cc2)n1	/	1.3%	7	/	18%	/	7%
CCOc1ccc(CCNC(=O)COC(=O)c2cc(OC)c(OC)cc2[N+](=O)[O-])cc1OCC	14	-4.5%	-23	/	-38%	/	2%
N#Cc1c2n(c(=S)n(-c3ccccc3)c1=O)CCCCC2	3	/	0	1%	-85%[inhibitor]	-0.5	-15%
Cc1ccc(C(=O)N2C3C=CC(C3)C2(C(F)(F)F)C(F)(F)F)cc1 (configuration not stated)	-25	-3.8%	8	-1%	?	0.2	3%
O=C(Nc1ccsc1C(=O)O)c1ccccc1	-7	/	-14	23%	14%	3.9	-7%
O=S(=O)(Nc1ccc(F)cc1Cl)c1ccc(-c2cnc(C3CC3)o2)cc1	6	-5.4%	/	10%	-2%	/	-17%
O=C(NC1CCCC1)C1CCN(C(=O)c2cc(Cl)ccc2Cl)CC1	6	/	-1	8%	-7%[15.4 µM]	4.1	16%
Cc1cc(C(=O)CN2CCCCC2)c(C)n1-c1ccc(F)cc1	-4	25µM*	5	7%	-3%	-0.7	19%
O=C(CN1CCN(Cc2ccccc2)CC1)NC(c1ccccc1)c1ccccc1	6	-2.1%	/	?	6%	-4.3	-5%
Other structures:
SMILES	TRPV1 potentiator	ClpP mod	CtBP-E1A blk	Sfp PPTase inh	gsp ag	Menin MLL FP FL	gsp antagonist
O=C(NCCN1CCOCC1)c1ccccc1[N+](=O)[O-]	6	-0.2%	2	6%	-11%	-1.0	-3%
COc1cc(NC(=O)C2C3C=CC(C3)C2C(=O)O)ccc1NC(=O)c1ccccc1 (configuration not stated)	1	-1.3%	4	89µM*	-14%[15.4 µM]	1.4	-4%
COc1ccccc1N/C=C/C(=C(C#N)C#N)N(C)C	2	/	-1	20%	30%[15.4 µM]	4.9	-14%
CCn1c(Cc2ccc(OC)cc2)nnc1SCC(=O)NC1CC1	-3	-0.5%	1	19%	-2%[15.4 µM]	/	7%
O=[N+]([O-])c1ccc(C(O)CN2CCN(c3ccccc3)CC2)cc1 (configuration not stated)	5	/	8	4%	1%	-2.5	5%
O=C(Nc1nnc(CCc2ccccc2)s1)c1ccc(F)cc1	9	1.7%	-13	9%	-23%[15.4 µM]	-0.7	10%
CCc1ccc2c(c1)CCCN2C(=O)c1ccccc1C(=O)O	-5	-2.7%	-30	-1%	1%	5.1	-9%
Cc1ccc(CC(=O)NCC2CCCCC2)cc1	-9	1.4%	/	-6%	4%	-1.2	4%
O=C(CCc1nnc(CCC2CCCCC2)o1)NCCc1ccccn1	-1	-1.2%	-10	7%	3%	0.9	-1%
Cc1oc2c(CN3CCCCC3C)c(O)ccc2c(=O)c1-c1ccccc1 (configuration not stated)	7	3.7%	-7	2%	?	-2.6	-1%
Cc1cc(S(=O)(=O)Nc2ccc(N3CCOCC3)cc2)ccc1Br	5	/	-5	8%	-4%	2.6	-18%
CCCN(CC(=O)Nc1ccc(F)c(F)c1F)C(=O)c1ccc(=O)n(Cc2ccccc2)n1	-7	-2.2%	-5	/	-28%	/	-5%
Cc1sc2ncnc(N[C@@H](Cc3ccccc3)C(=O)O)c2c1C	6	/	5	16%	?	-1.8	3%
Cc1cc(=O)[nH]c(NN=C2CCC(C(C)(C)C)CC2)n1 (configuration not stated)	-16	-1.6%	/	50µM*	-24%	-2.2	12%
Cc1cccc(Cc2nnc(CCC(=O)N3CCCCC3c3nccs3)o2)c1 (configuration not stated)	-2	/	-22	-3%	?	-1.9	3%
Cn1cc(S(=O)(=O)CC(=O)Nc2ccc(Br)cc2)c2ccccc21	12	1.6%	1	-9%	-30%[inhibitor]	5.5	-7%
C[C@H](CO)N1C[C@H](C)[C@@H](CN(C)Cc2ccc(C(=O)O)cc2)Oc2c(NC(=O)Cc3ccccc3)cccc2C1=O	/	-1.2%	2	/	/	/	-2%
CC(C)CC(C(=O)OCC(=O)Nc1cccc(Cl)c1)N1C(=O)C2CC=CCC2C1=O (configuration not stated)	-15	0.8%	2	10%	-3%	2.9	-22%
O=C(O)CCCNc1ccc([N+](=O)[O-])c(NCCCC(=O)O)n1	-17	/	-1	6%	5%[15.4 µM]	4.9	10%
CC1=NN(C(N)=S)C(=O)C1N=Nc1ccc(C)cc1C (configuration not stated)	5	/	/	-3%	/	1.7	/
Cc1oc2c(O)c(O)ccc2c(=O)c1-c1cnn(-c2ccccc2)c1	15	1.7%	?	?	11%	-2.8	-26%
C=CCn1c(C)cc(C(=O)COc2ncnc3sccc23)c1C	12	-3.2%	-17	-19%	-8%	13	-7%
O=C(c1ccc(-c2cc3ccccc3oc2=O)cc1)N1CCN(c2ccc(Cl)cc2[N+](=O)[O-])CC1	8	-1.8%	1	0%	15%	7.2	11%
N#Cc1cccn1-c1nccc(-c2cccs2)n1	-10	/	1	2%	8%	0.1	-3%
Cc1ccc(OCCNC(=O)/C=C/c2ccco2)cc1C	-8	-2.8%	1	10µM*	-45%[inhibitor]	17	-1%
(cont.)
SMILES	TRPV1 potentiator	ClpP mod	CtBP-E1A blk	Sfp PPTase inh	gsp ag	Menin MLL FP FL	gsp antagonist
Cc1ccc(-c2csc3ncn(CC(=O)N4CCOCC4)c(=O)c23)cc1C	4	-3.3%	4	-1%	28%	4.8	-9%
Cc1ccc(C(=O)OCC(=O)NC2CCCC(C)C2C)s1 (configuration not stated)	/	-0.5%	4	/	0%	/	/
Cc1ccc(C(=O)NC(=S)NNC(=O)c2cccc([N+](=O)[O-])c2)cc1	3	0.7%	/	12%	?	-0.5	-5%
COc1cc(CN2CCN(Cc3cn(C)c4ccccc34)CC2CCO)cc(OC)c1 (configuration not stated)	27	1.1%	-2	13%	-3%	1.6	7%
CCOC(=O)Cn1nc(C)c(NC(=O)c2ccc(Cl)c([N+](=O)[O-])c2)c1C	-6	-0.4%	-11	21%	?	-1.1	-21%
CCCCCC(=O)Nc1cc(S(=O)(=O)N2CCOCC2)ccc1N1CCCCC1	-25	/	6	/	3%[15.4 µM]	/	-15%
NS(=O)(=O)c1ccc(CCNC(=O)CSc2nnc3ccccn23)cc1	4	-29%	/	5%	22%	2.1	6%
COc1ccc(C(=O)NC2CCCc3ccccc32)cc1OC1CCN(C(C)=O)CC1 (configuration not stated)	-16	-1.5%	-4	5%	6%	/	5%
CCc1nonc1NC(=O)c1oc2c(C)c(C)ccc2c1C	?	37%	/	3%	-22%	1.9	-5%
Fc1ccccc1/C=N/Nc1nc(-c2ccccn2)nc2ccccc12	14	/	/	15%	/	1.4	/
Cc1nc2nc[nH]n2c(=O)c1NS(=O)(=O)c1ccc(F)cc1	-21	/	4	10%	7%	3.7	8%
Cc1ccc(CNc2cc(-c3nn4c(C)nnc4s3)ccc2C)s1	0	1.1%	4	-9%	22%	3.0	-10%
COC(=O)C1=C(C)N=C2SCCC(=O)N2C1c1ccc(C(=O)OC)cc1 (configuration not stated)	-5	-3.8%	1	10%	-24%	0.5	3%
Clc1cccc(CSc2nnc(-c3sccc3-n3cccc3)o2)c1	/	-23%	0	8%	6%	-0.4	-8%
O=C(CSc1nc2cccnc2n1Cc1ccccc1)NC1CCCCC1	-1	-1.7%	2	7%	-12%	3.5	-20%

Full records, quoted from the list. Order of screens: TRPV1 potentiator, ClpP mod, CtBP-E1A blk, Sfp PPTase inh, gsp ag, Menin MLL FP FL, gsp antagonist
Entry for Cc1ccc(CNc2cc(-c3nn4c(C)nnc4s3)ccc2C)s1 : 0, 1.1%, 4, -9%, 22%, 3.0, -10%
Entry for Cc1ccc(-c2csc3ncn(CC(=O)N4CCOCC4)c(=O)c23)cc1C : 4, -3.3%, 4, -1%, 28%, 4.8, -9%
